# Calb biofilm kill: clotrimazole potentiators killing C. albicans biofilm, primary screen, 4-compound mixtures; C. albicans biofilm persisters + clotrimazole, fluorescence viability; primary screen in compound mixtures of four per well; inhibition, % at 7.6 µM; 120,000 tested, 0.02% active;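 active = inhibition above 30.3% in the primary screen of four-compound pools, then above 30% when the compound was retested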;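 also: compounds exposed to preformed 24 h biofilms for 48 h; the number belongs to the whole pool; some results filed as inactive read as strong as hits; inactives centre near 12; 0% = biofilm with clotrimazole alone and 100% = kill control; retested singly at about 60 µM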
#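 Probe or stimulus – Clotrimazole 50 µg/mL co-treatment · System – C. albicans biofilms · Schedule – 24 h biofilm formation, then 48 h compound exposure, 37 °C · Evaluation – percent inhibition of biofilm viability · Technique – 2-h Alamar Blue fluorescence, 535/590 nm excitation/emission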
# Active calls of the source: *. Only part of the results is shown; rates above refer to the full screens.
# Start of the listing, in advance (2 entries):
mol | Calb biofilm kill
O=C1CC(N2CCN(Cc3ccc(Cl)cc3)CC2)C(=O)N1CCc1ccccc1 (configuration not stated) | 13.3
O=C(CN1CCCCC1)NN(Cc1ccccc1)c1ccccc1 | 6.9

# The whole of this part, repeating the preview:
mol | Calb biofilm kill
O=C1CC(N2CCN(Cc3ccc(Cl)cc3)CC2)C(=O)N1CCc1ccccc1 (configuration not stated) | 13.3
O=C(CN1CCCCC1)NN(Cc1ccccc1)c1ccccc1 | 6.9
Cc1nnc(SCC(=O)NC(=O)NC(C)C)s1 | 5.4
CN(C)c1ccc(NS(=O)(=O)c2ccc(Cl)cc2)cc1 | 21.2
O=C(Oc1ccc(N(Cc2cccs2)C2=NS(=O)(=O)c3ccccc32)cc1)c1ccco1 | 7.7
Cc1ccc(NC(=O)C(=O)NCCc2c[nH]c3ccccc23)c(C)c1 | 12.9
Cc1ccccc1Nc1nnc(SCC(=O)c2c(N)n(C)c(=O)n(C)c2=O)s1 | 18.0
CCc1nnc(N/N=C/c2cccs2)n1N | 16.2
CN(NC(=O)c1ccco1)c1nc2ccccc2nc1C(F)(F)F | 11.4
COc1ccc(Cn2cc(C(=O)c3ccccc3)c(=O)c3cc(OC)ccc32)cc1 | 16.2
CCOC(=O)c1c(NC(=O)c2cc(C)on2)c2cc([N+](=O)[O-])ccc2n1C | 15.1
CC(C)N1CCN(Cc2ccc(Oc3ncccn3)cc2)CC1CCO (configuration not stated) | 17.2
Cc1cc(C)n2nc(C(=O)N/N=C/c3cccc(Cl)c3)nc2n1 | -2.8
CC(NC(=O)Nc1ccc2c(c1)OCO2)c1ccncc1 (configuration not stated) | 17.4
C=CCN1C(=O)/C(=C/c2ccsc2)SC1=S | 15.4
Cn1c(=O)c2c(=O)cc(NNC(=O)CC#N)[nH]c2n(C)c1=O | 12.7
COc1ccc(C(CC(=O)O)NC(=O)COc2ccc(C)cc2)cc1OC (configuration not stated) | 5.1
CCc1ccc(NC(=S)Nc2cc(OC)c(NC(=O)C(C)C)cc2OC)cc1 | 30.7
CCOC(=O)C1(Cc2ccccc2C)CCCN(C(=O)CCn2nccc2C)C1 (configuration not stated) | 18.6
Cc1ccc(N/N=C/c2cccnc2)cc1 | 17.9
COc1ccc(C(N)=S)cc1 | 15.2
S=c1[nH]nc(-c2ccco2)n1/N=C/c1ccccc1 | 25.9
COC(=O)c1c(C)c[nH]c1C | 14.1
COc1ccc(CCNC(=O)CSc2nnc(C(C)N(C)C)n2Cc2ccccc2)cc1OC (configuration not stated) | 10.4
COc1ccccc1-c1cc(C(F)(F)F)nc(NCc2cccs2)n1 | 3.1
Cc1cc(=O)[nH]c(SCC(=O)OCc2ccccc2)c1C#N | 14.8
O=S(=O)(NCC(Nc1ccc(Cl)cc1)c1ccccc1)c1ccc(Cl)cc1 (configuration not stated) | 18.7
CC[n+]1c(C)n(-c2ccccc2)c2ccc(C(=O)OC)cc21 | 9.8
COc1cc(/C=C/CN2CCC(CO)(CC3CCCCO3)CC2)ccc1O (configuration not stated) | 8.2
O=C(CSCc1ccc(Cl)cc1)Nc1ccc(S(=O)(=O)N2CCCCCC2)cc1 | 11.5
Cc1nn(C)c(C)c1CN(C)C(=O)C1(C)CC1(Br)Br (configuration not stated) | 14.6
O=c1[nH]c(=S)c2ncn(-c3ccccc3)c2[nH]1 | 12.6
O=C(c1cccs1)N1CCN(c2ccccc2)CC1 | 12.3
CCN(c1ccccc1)S(=O)(=O)c1ccc(Cl)c(NC(=O)CN2CCCCCC2)c1 | 17.8
Nc1n[nH]c(N)c1N=Nc1cccc(F)c1 | 7.2
O=C(NN(c1ccccc1)c1ccccc1)c1ccc([N+](=O)[O-])o1 | 13.3
COc1ccc(CCNC(=O)CCNS(=O)(=O)c2cccc(Cl)c2)cc1OC | 11.1
Cc1cc(-c2ccn[nH]2)c(C)s1 | 18.1
CC(=O)N1N=C(c2cccc(NS(C)(=O)=O)c2)CC1c1cccs1 (configuration not stated) | 16.9
C#CCNC(=O)C1=C[C@@H](c2ccccc2)C[C@@H](OCc2ccc(CO)cc2)O1 | 17.7
Cc1cccc(C)c1-n1nnnc1C(C)(C)N1CCN(N=O)CC1 | 16.5
O=S(=O)(c1cccs1)N1CCC(CO)(Cc2ccc(Cl)cc2)CC1 | 2.0
CC(C)NC(=O)Cn1c(SCC(=O)c2ccc(F)cc2)nc2ccccc21 | 11.7
O=C1/C(=C/c2ccncc2)SC(=S)N1Nc1ccccc1 | 11.7
O=C(O)c1cc(S(=O)(=O)N2CCCCC2)sc1Cl | 9.6
O=C(O)c1ccc2cccnc2c1O | 11.5
CC(=O)Nc1ccccc1/C=C/c1ccc2c(C)ccc(O)c2n1 | 8.8
FC(F)(F)c1nc2ccccc2c2nc3ccccc3n12 | 14.6
Cc1ccc(-n2nc(-c3ccco3)cc2C(=O)O)cc1 | 1.6
Cc1[nH]c2ccccc2c1/C=N/NC(=O)Cc1cccs1 | 12.2
Cc1cc(=O)n2c3ccccc3n(CC(O)CN3CCOCC3)c2c1C#N (configuration not stated) | 5.2
CC1Cc2ccccc2N1C(=O)CSc1nn2c(=O)c(C(C)(C)C)nnc2s1 (configuration not stated) | 16.7
CCCC(=O)Nc1c(C(=O)OCC)oc2ccccc12 | 3.0
CC(=O)Nc1ccccc1NC(=O)C/C(C)=N/NC(=O)c1ccccn1 | -10.6
COc1cc2c(cc1OC)CN(S(=O)(=O)c1cccs1)CC2 | 3.5
N/N=C(\c1ccccc1)C12CN3CN(CN(C3)C1)C2 | 4.4
CCOC(=O)C1(Cc2cccc(OC)c2)CCN(Cc2cccc(OC)c2OC)CC1 | 11.0
Fc1ccccc1-c1csc(=Nc2cccnc2)n1CC1CCCO1 (configuration not stated) | 6.9
O=C(NCc1cccs1)C(=O)NCC1OCCCN1S(=O)(=O)c1cccs1 (configuration not stated) | 16.9
Cn1c(N)c(C(=O)COC(=O)COc2ccc3ccccc3c2)c(=O)n(C)c1=O | 16.4

# Shown with each value named: part of the list above.
O=C1/C(=C/c2ccncc2)SC(=S)N1Nc1ccccc1
  Calb biofilm kill: 11.7
O=C(O)c1cc(S(=O)(=O)N2CCCCC2)sc1Cl
  Calb biofilm kill: 9.6

# Next compounds follow.
mol | Calb biofilm kill
Cc1ccc(OCC(=O)Nc2cccc(S(=O)(=O)N3CCCCC3)c2)c([N+](=O)[O-])n1 | 14.4
CCOC(=O)/C=C/C(=O)OCC(=O)Nc1ccc([N+](=O)[O-])cc1 | 29.3
CC(C)CC(O)C1CCN(C(=O)CCc2nnc(-c3ccccc3)o2)CC1 (configuration not stated) | 14.7
O=C(c1ccc2c(c1)OCO2)C1CCCN(C(=O)c2cnn(Cc3ccccc3)c2)C1 (configuration not stated) | 7.1
CCCn1c(SCC(=O)Nc2cc(S(=O)(=O)N(C)C)ccc2OC)n[nH]c1=O | 2.2
CC(C(=O)NCc1ccc2c(c1)OCO2)c1ccc([N+](=O)[O-])cc1 (configuration not stated) | 4.8
CC(C)(C)OC(=O)N[C@@H](Cc1ccccc1)[C@H](O)c1ccco1 | 12.7
O=C(COc1ccc(S(=O)(=O)NC2CCCC2)cc1)NCC1CCCO1 (configuration not stated) | 59.3
CCCc1cc(=O)oc2cc(OCc3cccc(OC)c3)c(Cl)cc12 | 4.4
CCOc1ncccc1C(=O)OCc1ccc(C#N)cc1 | 16.8
COc1cccc(CC2(CO)CCCN(Cc3ccc(C)s3)C2)c1 (configuration not stated) | 11.3
CN(C)c1nc(-c2ccccc2)ns1 | 15.9
CC1(C)Cc2nc3oc4c(=O)n(CC(=O)Nc5ccc(Cl)cc5)cnc4c3cc2CO1 | 15.3
COc1cc(OC)cc(C(=O)NNC(=O)c2ccc(S(=O)(=O)N(C)c3ccccc3OC)cc2)c1 | 6.0
CCOc1ccc(OCC)c(NC(=O)CCCN2C(=S)NC(C)(C)CC2C)c1 (configuration not stated) | 10.3
CC1(OC(=O)CCc2ccccc2)C(=O)C=C2C=C(c3ccc(C#N)cc3)N(Cc3ccco3)C=C2C1=O (configuration not stated) | 19.6
CCOc1ccccc1OCCC(=O)OCC(=O)c1ccc[nH]1 | 14.9
CCCOc1ccc(NC(=O)C2OC3OC(C)(C)OC3C3OC(C)(C)OC23)cc1 (configuration not stated) | 13.6
Cc1cccc(C2c3[nH]c4ccccc4c3CCN2C(=O)c2cn(C)c3ccccc3c2=O)n1 (configuration not stated) | 8.6
N#Cc1c(-c2ccccc2)nc(SCC(=O)NC2CCCCC2)[nH]c1=O | 4.1

# Nothing new here: entries from further up.
mol | Calb biofilm kill
Cc1ccc(OCC(=O)Nc2cccc(S(=O)(=O)N3CCCCC3)c2)c([N+](=O)[O-])n1 | 14.4
CCOC(=O)/C=C/C(=O)OCC(=O)Nc1ccc([N+](=O)[O-])cc1 | 29.3
CC(C)CC(O)C1CCN(C(=O)CCc2nnc(-c3ccccc3)o2)CC1 (configuration not stated) | 14.7
O=C(c1ccc2c(c1)OCO2)C1CCCN(C(=O)c2cnn(Cc3ccccc3)c2)C1 (configuration not stated) | 7.1

# Remaining list, next part.
mol | Calb biofilm kill
O=C(CN1C(=O)c2ccccc2C1=O)NCCOc1ccccc1 | 26.5
Cc1c(Nc2cc(Cl)c3nonc3c2[N+](=O)[O-])c(=O)n(-c2ccccc2)n1C | 6.4
Cc1ccccc1OCCC(=O)Nc1ccc(Cl)cc1F | 14.5
COc1ccc(Nc2cnn(-c3nc4ccccc4s3)c(=O)c2Cl)cc1 | 14.7
COc1ccc(-c2nc(-c3ccc4c(c3)OCO4)[nH]c2-c2ccc(OC)cc2)cc1 | 8.3
COCCNC(=O)/C(C#N)=C\c1ccc(CNS(=O)(=O)c2ccc(C)cc2)o1 | -1.5
CCOc1ccc2nc(C(=O)N3CCCC(C)C3)sc2c1 (configuration not stated) | 18.0
Cc1c(C(=O)Nc2ccc3c(c2)CCC3)cccc1[N+](=O)[O-] | 5.0
COc1ccc(CC(=O)N2N=C(c3ccncc3)CC2(O)C(F)(F)F)cc1 (configuration not stated) | 13.9
CC(C)Cn1c2c(c(O)c(C(=O)Nc3nc4ccccc4s3)c1=O)CCCC2 | 19.1
CC(c1n[nH]c(=S)n1-c1ccc(Cl)cc1)N(C)C (configuration not stated) | 12.2
CCCCNC(=O)N(C)c1nc2ccccc2s1 | 24.6
O=C(Oc1coc(CSc2ncccn2)cc1=O)c1ccco1 | 20.8
CC(C)=CCCC(C)CN1CCC(N2CCC(C(=O)N3CCCC3)CC2)CC1 (configuration not stated) | 14.9
c1ccc(-c2cc3c(N4CCN(c5ccccc5)CC4)ncnc3s2)cc1 | -0.2
N#Cc1cc(NC(=O)c2ccc(F)cc2)c(=O)n2c1[nH]c1ccccc12 | 15.8
Cc1ccc(S(=O)(=O)N2CCCC2C(=O)OCc2nc3sc(C)c(C)c3c(=O)[nH]2)cc1 (configuration not stated) | 18.4
COC(=O)c1c(C)oc(C)c1S(=O)(=O)NCc1ccc(Cl)cc1 | 21.7
C/C=C/c1ccc(OCCOc2ccc(C=O)cc2OC)c(OC)c1 | 16.1
CCN(CC)CCC(c1ccc2c(c1)OCO2)c1c(OC)cc(OC)c2c(-c3ccccc3)cc(=O)oc12 (configuration not stated) | 14.2
CC(C)=CCN1CCN(Cc2cccn2-c2ncccn2)CC1CCO (configuration not stated) | 12.6
O=C(NN1C(=O)c2ccc(-c3ccc4c(c3)C(=O)N(NC(=O)c3cccnc3)C4=O)cc2C1=O)c1cccnc1 | 4.5
CC(=O)Nc1ccc(N(C(=O)Cc2c[nH]c3ccccc23)C(C(=O)NC2CCCCC2)c2ccco2)cc1 (configuration not stated) | 6.6
CNC(=S)NNC(=O)c1sc(-c2cc(C)on2)nc1C | 15.5
O=C(/C=C/c1ccco1)NCC(=O)N/N=C/c1ccc(Cl)cc1 | 11.1
CC(=O)O[C@H]1CC[C@H]2[C@@H]3CCc4cc(O)ccc4[C@H]3CC[C@]12C | -5.5
CN1CCN(NC(=S)Nc2ccc(Oc3ccccc3)cc2)CC1 | 8.1
CN(C)c1ccc(NC(=O)CCn2c(=S)oc3ccccc32)cc1 | 14.9
C/C(=N\NC(=O)c1c[nH]c2ccccc12)c1ccc2c(c1)OCO2 | 6.4
NC1=NC(=O)C(CC(=O)NCc2ccccc2)S1 (configuration not stated) | 12.0
Cc1ccc(C(=O)NN2C(=O)/C(=C/c3cccn3C)SC2=S)cc1 | 5.4
CCN(CC)CCNC(=O)c1cc([N+](=O)[O-])c(N(C)C)cc1OC | 14.1
COc1ccc(-c2csc(Nc3ccccc3)[n+]2CC(O)c2ccc([N+](=O)[O-])cc2)cc1 (configuration not stated) | 12.7
Cc1ccc(S(=O)(=O)NNC(=S)NC(=O)c2ccc([N+](=O)[O-])cc2)cc1 | 10.9
CCOC(=O)c1c(NC(=O)c2cc(-c3cccc(O)c3)on2)sc(C(C)=O)c1C | -0.8
Cc1ccc(NC(=O)CSc2nnc(-c3ccco3)o2)c(C)c1 | 23.5
O=C(O)c1cnn2c1C(=O)N(Cc1cccs1)CC2 | 13.5
N#C/C(=C\c1ccncc1)c1nc2ccccc2[nH]1 | 3.6
CCOc1ccccc1NC(=O)C1CCCN(C(=O)Nc2ccccc2)C1 (configuration not stated) | 14.3
CCc1ccccc1NC(=S)/N=C(\N)Nc1nc(C)c2cc(C)ccc2n1 | 15.7
CCOC(=O)c1nn(-c2ccccc2F)c2nc(Nc3ccccc3)cc(=O)n12 | 16.5
Cc1cccc(NC(=O)C2CCCN2C(=O)NC2CCCCC2)c1 (configuration not stated) | 18.6
COCCN1C(=S)NC(c2cccc(C(F)(F)F)c2)C(C(=O)N2CCOCC2)=C1C (configuration not stated) | -30.3
COc1ccc(C(=O)COc2ccccc2C#N)cc1 | 24.5
Cc1cccc(NC(=O)/C(=C/c2cccc([N+](=O)[O-])c2)NC(=O)c2cccs2)c1 | 18.3
CCNC(=S)N1CCC(C(O)(c2ccccc2)c2ccccc2)CC1 | 19.9

# Compound activity deposited in PubChem BioAssay by PCMD.
